HIV TAR-Tat: TAR RNA-Tat peptide displacers, HIV-1, primary screen, biochemical, FRET, FAM/TAMRA-labeled Tat | HIV-1 TAR RNA, Tat peptide displacement FRET; hits give high values | z-score (test concentration not listed) | 0.6% of 100,000 active | AID 1259389, 2018;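 further: score is relative to mean and SD of negative controls; some compounds called inactive have numbers as strong as hits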
CDC25B CDK2 inh: primary biochemical HTRF screen for blockers of M-phase inducer phosphatase 2 binding to CDK2/cyclin A; z-score (no concentration beside the values); AID 1259370, 2018; HTRF CDC25B-CDK2/CyclinA binding, anti-His/anti-Flag; hits give high values; P30305+P24941; 0.72% of 94,000 active;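 further: score is relative to mean and SD of negative controls; strong numbers were not always called active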
An asterisk follows results filed as active; / = not tested or not shown.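 How the source made its calls: active means z-score from 3 up in half or more of its runs; inactive means the rest.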

mol	CDC25B CDK2 inh	HIV TAR-Tat
CC1CCc2cc(F)ccc2N1C(=O)c1cc(S(=O)(=O)N2CCCC2)cn1C (configuration not stated)	/	2.4
CSc1n[nH]c(N)c1S(=O)(=O)c1ccc(Cl)cc1	0.22	/
COC(=O)c1ccccc1NC(=O)C1CC2CCCN2C12C(=O)Nc1ccccc12 (configuration not stated)	/	0.13
O=C1NC(=O)c2cc(Br)cc3cccc1c23	-0.67	/
N#Cc1nc(/C=C/c2cccs2)oc1N1CCc2ccccc2C1	-1.9	1.5
COCCCNC(=O)CSc1nc2cc(OC)c(OC)cc2c2nc(C)nn12	-1.3	/
Cc1ccc(NC(=O)C2Sc3nnc(C)n3NC2c2ccc(Cl)cc2)c(Br)c1 (configuration not stated)	-1.7	-0.2
COc1ccccc1OCCSc1nc2ccccc2s1	-1.4	1.2
CC1=NN(C(=O)COc2ccc(Cl)c(C)c2)C(O)(C(F)(F)F)C1 (configuration not stated)	0.72	/
CN(C1=NS(=O)(=O)c2ccccc21)c1ccc(OC(=O)c2ccncc2)cc1	2.4	/
O=C1CC(c2ccsc2)c2c(n[nH]c2-c2ccc(Cl)cc2)N1 (configuration not stated)	0.95	-0.65
N/C(COc1ccc(Cl)cc1)=N\OC(=O)c1ncc(C(F)(F)F)cc1Cl	-5.1	/
CCOC(=O)CCc1nc(NCc2cc(Br)ccc2OC)c2c(C)noc2n1	/	0.56
Cc1cc(C)c(S(=O)(=O)NCc2cccn2Cc2ccc(F)cc2)c(C)c1	/	-1.1
CC1CCCN(c2sc(S(C)(=O)=O)nc2S(=O)(=O)c2ccc(Cl)cc2)C1 (configuration not stated)	-0.58	0.46
CC1CCCCC1Nc1ncnc2onc(-c3ccc(Cl)cc3)c12 (configuration not stated)	/	3.5
O=C(NC1CCc2ccccc21)c1cc2c(s1)CCC2 (configuration not stated)	-1	1.9
Cc1ccc(CNC(=O)C(C)n2ncn3c(cc4occc43)c2=O)cc1 (configuration not stated)	0.64	0.7
CCN1CCN(C(=O)C(C)n2ncn3cccc3c2=O)CC1 (configuration not stated)	-1.9	1.6
Cc1ccc(S(=O)(=O)NCCn2cnc([N+](=O)[O-])n2)cc1	-1.1	0.86
COc1ccc(S(=O)(=O)N2CCN(c3nc4ccccc4n4cccc34)CC2)cc1	-0.48	-0.41
COCCn1c(-c2cccc(OC)c2)cnc1NC(=O)NCC1CCCO1 (configuration not stated)	/	1.7
CCOC(=O)c1noc2ncnc(Nc3ccc(Br)cc3C)c12	/	-0.9
CCCC1Cc2nc3sc(C(=O)OCC)c(N)c3cc2CO1 (configuration not stated)	-1.2	1.2
Clc1ccc(-c2nc(NC3CC3)c3ccccc3n2)cc1	/	0.29
CCOC(=O)C1=Nn2c(nnc2-c2ccccc2)SC1	-0.66	1.8
CC(C)(C)C(=O)Nc1cccc(-c2nnco2)c1	-1.8	/
Cn1c(=O)c(C(=O)NCc2ccccn2)c(O)c2ccccc21	-0.96	-2.2
CC[C@H](C)NC(=O)CCCc1nnc2n(C)c(=O)c3sccc3n12	/	0.16
CN1CCOc2ccc(S(=O)(=O)NCCc3ccc(Cl)cc3)cc21	/	0.4
O=C(Nc1ccc(-c2cn3ccsc3n2)cc1)c1cccs1	/	0.97
CC1CC(C)CN(CCCNC(=O)Nc2cn(C)c(=O)c3ccccc23)C1 (configuration not stated)	/	-1.6
CC(=O)N1N=C(c2ccccc2C)OC1c1cccnc1 (configuration not stated)	/	0.7
O=C1C2C(c3ccccc3)OC3(C(=O)c4ccccc4C3=O)C2C(=O)N1c1cccc(C(F)(F)F)c1 (configuration not stated)	-0.66	/
CCCc1c(C)nc2ncnn2c1Nc1ccc(OC)c(Cl)c1	0.5	0.29
Cc1c(C(=O)NC2CC2)sc2nc3n(c(=O)c12)CCC3	/	1.5
CC(Oc1ccc(I)cc1)C(=O)Nc1ccc(S(N)(=O)=O)cc1 (configuration not stated)	0.39	/
COc1cc(/C=C(\C#N)C(=O)NC2CCCCC2C)cc(Cl)c1O (configuration not stated)	-8.4	/
O=C(Nc1nnc(CCS(=O)(=O)c2ccc(Cl)cc2)s1)C1CCCCC1	-0.58	/
COc1ccc(-c2c(OC)c3c(OC)c4c(cc3oc2=O)OC(C)(C)C=C4)cc1	/	2
CC(C)c1ccc(-c2cc(C(=O)O)c3ccccc3n2)cc1	-1.8	/
Cc1nn(-c2ccc3nnc(C)n3n2)c2c1C(c1ccccc1OCCc1ccccc1)CC(=O)N2 (configuration not stated)	/	0.77
Nc1nc2ncc(C(=O)O)nc2c(=O)[nH]1	/	3
O=C(O)Cn1c(=O)cc(O)c2ccccc21	/	0.67
O=c1[nH]c2c(nnn2Cc2ccccc2Cl)c(=O)n1-c1cccc(Cl)c1	-0.84	/
O=C(Nc1ccc(F)cc1Cl)c1ncoc1-c1cccs1	/	1.5
CC1=C(C(=O)OC(C)C)C(c2ccccc2)N2C(=O)CCSC2=N1 (configuration not stated)	-1.6	2
Cc1ccc2c(c1)C1OCCC1C(c1ccco1)N2 (configuration not stated)	-0.69	/
CCSc1ncc2c(=O)n(CC(=O)N3CCc4ccccc43)cnc2n1	/	9.7*
Cc1cc2c3c([nH]c2cc1S(=O)(=O)N(C)CC1COc2ccccc2O1)CC(C)(C)CC3=O (configuration not stated)	/	1.5
CCOC(=O)C1CCCN(c2nnc(Cc3ccncc3)c3ccccc23)C1 (configuration not stated)	-2.6	-0.75
O=C(Nc1ccc2oc(-c3ccccc3Br)nc2c1)c1sc2ccccc2c1Cl	-1.2	/
COCCCNC(=O)c1c(NC(=O)c2cc(=O)c3cc(Cl)ccc3o2)sc2c1CCCC2	0.44	-0.34
CCOC(=O)N1CCN(C(=O)c2cn(CC)c(=O)c3cc(OC)c(OC)cc23)CC1	-1.4	1.1
CCOc1ccc(Nc2ncnc3sc4c(c23)CCCC4)cc1	-0.98	1.2
CC1Cc2cc(S(=O)(=O)CCC(=O)Nc3ccccc3F)ccc2N1C(=O)C1CC1 (configuration not stated)	/	-0.81
COc1ccc(-c2noc(NCCc3ccc(Cl)cc3)n2)cc1	-1.5	1.3
Cc1cc2c3c([nH]c2cc1S(=O)(=O)N(C)C1CCCCC1)CC(C)(C)CC3=O	/	0.6
Cc1ccc(N2CC(O)=C(c3nc4ccccc4s3)C2=N)c(Br)c1	0.72	1.2
Cc1ccc(O)c(-c2cnc3ccccc3n2)c1	-0.6	0.31

(cont.)
mol	CDC25B CDK2 inh	HIV TAR-Tat
Cc1cc(NC2CCCCC2)nc(-n2nc(C)cc2C)n1	-1	/
CCCC(C)N1CCN(S(=O)(=O)c2ccc(-c3cc(C(F)(F)F)on3)s2)CC1 (configuration not stated)	/	1
COc1ccc(Br)c(C(=O)NN)c1	-3.1	/
Cc1noc2ncnc(NC(C)CCc3ccco3)c12 (configuration not stated)	/	-0.03
Cc1ncc(CO)c(CNc2ccc(F)cc2)c1O	/	-0.34
CCN(CC)Cc1cc(Nc2ccnc3cc(Cl)ccc23)ccc1O	0	0.59
CN1C(=O)C2(c3ccccc31)C(C(=O)Nc1ccccc1Cl)CC1CCCN12 (configuration not stated)	/	-1.3
CCC(Sc1nc2ncccc2o1)C(=O)N1CCN(c2ncccn2)CC1 (configuration not stated)	/	-0.5
COc1ccc(Nc2nc(N3CCN(c4ccccc4OC)CC3)nc3c2cnn3C)cc1	/	0.37
CCc1nnc(NC(=O)C(=O)c2cc(C)n(-c3ccccc3)c2C)s1	-1.2	1.7
CN1CCN(c2cc3c(cc2F)c(=O)c(S(=O)(=O)c2cccc(Cl)c2)cn3C)CC1	/	-0.06
CCn1cc(Br)c(C(=O)Nc2cc(OC)c(OC)c(OC)c2)n1	-1.5	/
CCc1ccc(-c2cc(C)no2)cc1S(=O)(=O)Nc1ccc(C)cn1	/	-0.18
CCSc1ncc(Cl)c(C(=O)N(Cc2ccc(F)cc2)C2CCS(=O)(=O)C2)n1 (configuration not stated)	-0.08	1.5
Cn1c(Sc2c3c(nc4ncnn24)CCC3)nnc1-c1ccccc1	-0.69	/
CC1CCCC(C)N1CCCNc1ncnc2onc(-c3ccc(Cl)cc3)c12 (configuration not stated)	-0.44	-0.02
COC(=O)CSc1nc(-c2ccc(OC)cc2)cc(C(F)(F)F)n1	-1.5	1.1
O=C(Cc1cc(F)cc(F)c1)NNC(=O)c1cccc(C(F)(F)F)c1	-0.95	/
C/C(CC(C)(C)C)=N\NC(N)=O	-1.4	/
O=C(N/C(=C/c1ccc(-c2cccc([N+](=O)[O-])c2)o1)C(=O)N1CCCCC1)c1ccccc1	-3.2	/
CCn1cc(C(=O)N2CCCC2)c2cc(OC)c(OC)cc2c1=O	-1.9	/
CC(C)(C)C(=O)Oc1ccc(S(=O)(=O)Nc2ccccc2C(=O)NCC(=O)O)cc1	-0.22	/
O=C(NNC(=O)c1c(F)cccc1F)c1c(F)cccc1F	-0.05	/
O=C(Nc1cnc2ccccc2c1)c1ccccn1	/	1.3
Cn1c(=O)c2c(SCC(=O)Nc3ccc(F)cc3F)nc(-c3ccc(F)cc3)nc2n(C)c1=O	-4.2	/
CCCCCn1c(=O)c2c(nc3n2CCS3)n(C)c1=O	-0.21	0.33
COc1ccc(-c2c(C)nn3c(C)cc(C)nc23)cc1OC	-1.1	0.69
CCOC(=O)C1=C(C)NC2=C(C(=O)CCC2)C1c1cc(OC)c(OC)cc1Br (configuration not stated)	-0.51	0.86
Cc1ccc(C)c(Nc2c(-c3ccc(C(C)C)cc3)c(=O)c2=O)c1	/	1.3
CCc1ccc(S(=O)(=O)Nc2ccc3c(c2)N(S(=O)(=O)c2ccc(C)cc2)CCC3)s1	/	1.7

Ordered by formula weight (falling): some entries from above.
mol	CDC25B CDK2 inh	HIV TAR-Tat
CC(C)(C)C(=O)Oc1ccc(S(=O)(=O)Nc2ccccc2C(=O)NCC(=O)O)cc1	-0.22	/
CC1CCCC(C)N1CCCNc1ncnc2onc(-c3ccc(Cl)cc3)c12 (configuration not stated)	-0.44	-0.02
O=C(Cc1cc(F)cc(F)c1)NNC(=O)c1cccc(C(F)(F)F)c1	-0.95	/
CCn1cc(C(=O)N2CCCC2)c2cc(OC)c(OC)cc2c1=O	-1.9	/
Cc1ccc(C)c(Nc2c(-c3ccc(C(C)C)cc3)c(=O)c2=O)c1	/	1.3
O=C(NNC(=O)c1c(F)cccc1F)c1c(F)cccc1F	-0.05	/
CCCCCn1c(=O)c2c(nc3n2CCS3)n(C)c1=O	-0.21	0.33

(more compounds)
mol	CDC25B CDK2 inh	HIV TAR-Tat
Cn1cc(NC(=O)Nc2nc3ccccc3s2)c2ccccc2c1=O	/	1.9
O=C(Cn1cnc(S(=O)(=O)N2CCc3ccccc32)c1)Nc1ccc(Cl)cc1	/	-1.1
CC(c1ccccc1)C1C(C#N)=C(N)OC2=C1C(=O)CCC2 (configuration not stated)	-0.58	/
CC(C)(C)C(=O)NNC(=O)c1cnccc1C(F)(F)F	-1.6	/
CC(C)c1nc(C(N)=O)c2[nH]c(=O)n(-c3ccc4c(c3)OCO4)c2n1	/	0.48
COc1cc(NC(=O)CSc2nc3ncccc3o2)ccc1Cl	/	0.96
Clc1cccc(-c2nn3c(Cn4cnc5ccccc54)nnc3s2)c1	-0.29	1.2
O=C(c1noc2c1COc1ccccc1-2)N1CCN(c2ncccn2)CC1	-0.82	0.63
O=C1COc2cc(S(=O)(=O)N3CCC(N4CCCCC4)CC3)c(Cl)cc2N1	/	1.1
O=C(NCCO)c1ccc2snnc2c1	-1.3	1.6
COc1ccccc1-c1noc(CSc2nnc(C)n2-c2ccc(C)c(C)c2)n1	-0.76	-0.72
O=C(OCCN=C1NS(=O)(=O)c2ccccc21)c1ccccc1Cl	-0.64	/
O=C(NC12CC3CC(CC(C3)C1)C2)c1cccnc1	0.13	/
CC1=C(C(=O)Nc2cc(C)ccn2)C(c2cccnc2)C2=C(CCCC2=O)N1 (configuration not stated)	0.21	1.9
CCOC(=O)c1noc2ncnc(N3CCN(c4ccccn4)CC3)c12	/	0.07
CCOC(=O)N1CCC(NC(=O)NCc2noc3ccccc23)CC1	/	-4.3
Cn1c(=O)c2[nH]c(-c3ccccn3)nc2n(C)c1=O	-1.4	1.7
COc1ccc(C2C(C#N)=C(N)OC3=C2C(=O)CC(C)(C)C3)cc1OC (configuration not stated)	0.94	/
N#Cc1cc2c(nc1SCC(=O)Nc1cnc3ccccc3c1)CCCCCC2	-1.4	/
COC(=O)COc1ccc(Oc2nc(NCC(C)C)nc(N3CCOCC3)n2)nn1	-0.75	/
COc1ccc(OC)c(C2CCN(S(=O)(=O)c3ccc4c(c3)NC(=O)CCS4)C2)c1 (configuration not stated)	/	1.5
Cn1cnc(S(=O)(=O)NCc2ccco2)c1	/	0.56
O=C(O)CCNc1ncnc2sc3c(c12)CCCC3	0.65	/
CC(C)CC(NC(=O)C1CCC(C)CC1)C(=O)NC1CCCC(C)C1C (configuration not stated)	0.1	-2.4
CCN1CCN(C(=O)C2=CCN(S(=O)(=O)c3ccc(Br)cc3)CC2)CC1	-0.37	-1.8

Quoted at random: 2 records from the list
mol	CDC25B CDK2 inh	HIV TAR-Tat
COc1ccc(OC)c(C2CCN(S(=O)(=O)c3ccc4c(c3)NC(=O)CCS4)C2)c1 (configuration not stated)	/	1.5
COc1ccc(C2C(C#N)=C(N)OC3=C2C(=O)CC(C)(C)C3)cc1OC (configuration not stated)	0.94	/
